Screening results (PubChem BioAssay)
H5N1 CPE = antiviral screen in MDCK cells, H5N1 avian flu. cytopathic effect, luminescence, 72 h; stronger effect = higher value; no value below 0 was filed and about half of the inactive calls have no number; reference of the scale not given here. inhibition, % at 50 µM. 96,000 tested, 0.07% active; in the data active = inhibition above about 25%
* hit, by the source's call; i = inactive. This is a subset (hit frequency here may not be typical).

smiles	H5N1 CPE
CN1CCC(=NNC(=O)C(=O)NC2CCCC2)CC1	i
COc1ccc(N2CCN(C(=O)Cn3nnc(-c4cccs4)n3)CC2)cc1	i
Cn1c(=O)c2c(nc(NCc3ccco3)n2CCc2ccccc2)n(C)c1=O	1.4
CC1=CC(C)(C)Nc2cc(C)c(C)cc21	i
CCn1c(=O)n(CC)c2cc(S(=O)(=O)N3CCOCC3)ccc21	0.1
Nc1c(C(=O)OCC2CCCO2)c2nc3ccccc3nc2n1Cc1cccs1 (configuration not stated)	i
O=C(Nc1ccc(S(=O)(=O)N2CCCC2)cc1)N1c2ccccc2Sc2ccccc21	2.3
Cc1nc2ccccc2n1CC(=O)N1CC(=O)Nc2ccccc21	0.4
COc1ccc(NC(=O)c2cccc(NC(=O)C3C4CC5OC(=O)C3C5C4)c2)c(OC)c1 (configuration not stated)	1.1
CCCCC(=O)Nc1nc(C)c(-c2csc(Nc3cc(Cl)ccc3OC)n2)s1	i
CCC(=O)N(CCC(c1ccco1)c1ccccc1OC)Cc1cccs1 (configuration not stated)	i
Cc1cccc(N2CCN(C(=O)CCNS(=O)(=O)c3ccc4c(c3)CCC(=O)N4)CC2)c1C	2.9
CCOC(=O)c1sc(NC(=O)COC(=O)Cn2cnc3ccccc32)c(C(=O)OCC)c1C	i
O=C(OCn1ncc(Cl)c(Cl)c1=O)c1ccccc1Cl	i
O=C(NC(NC(=S)Nc1ccccc1)C(Cl)(Cl)Cl)c1cccc(Cl)c1 (configuration not stated)	7.2
C=CCOc1cccc(C2C(C(=O)c3ccc(C)o3)=C(O)C(=O)N2CCN(C)C)c1 (configuration not stated)	2.3
CCCC(=O)Nc1nn(CCC)c2nc3ccccc3cc12	0.6
Cc1nc(SCC(=O)Nc2ccc(F)cc2)c2oc3ccccc3c2n1	i
CC1(C)N=C(SCC(=O)Nc2ccccc2)C(c2ccc(Cl)cc2)=N1	i
O=C(CN1CCCCC1)Nc1ccccc1NC(=O)CN1CCCCC1	0.2
Cc1cc(NCCOCCO)n2ncc(-c3ccc(Cl)cc3)c2n1	1.2
COC(=O)c1nc(N)sc1-c1ccccc1	i
Cc1cc(C)c2c(CN3CCN(C/C=C/c4ccccc4)CC3)cc(=O)oc2c1	i
CCN1CCN(Cc2cc(Br)ccc2O)CC1	0.7
Cc1cccc(-c2noc(CN(C(=O)c3c(-c4ccccc4Cl)noc3C)C(C)C)n2)c1	5.6
Cc1[nH]nc2c1C(c1ccccn1)N(c1ccc(Br)cc1)C2=O (configuration not stated)	i
CC(=NCc1ccco1)c1c(O)n(-c2ccccc2)c(=O)[nH]c1=O	i
COc1ccc(C(=O)NCCc2nnc(SCC(=O)Nc3ccc(Br)cc3)n2C)cc1	i
CCc1ccccc1OCCCCCNCCO	i
O=C(CSc1ncccn1)NCc1ccc(F)cc1	i
Cn1ncc2c(Nc3ccc(-c4ccccc4)cc3)ncnc21	3.7
COc1ccccc1OCC(=O)N1CCN(c2ccccc2OC)CC1	1.3
CN(C(=O)c1cccc(C#N)c1)c1nnc(C2CCCO2)s1 (configuration not stated)	0.1
CC(C)CC(=O)N1CCN(S(=O)(=O)c2ccc(F)cc2)CC1	0.4
COCCNC(=O)CN(C(=O)Cn1nnc2ccccc21)c1ccccc1	i
CCOC(=O)c1sc(NC(=O)c2cc(-c3ccccc3C)nc3ccccc23)c(C#N)c1C	5.8
O=C(Nc1nn[nH]n1)c1cccc(Oc2ccccc2)c1	i
CCOC(=O)C1CCN(C(=O)CCCCn2c(=O)[nH]c3ccccc3c2=O)CC1	i
Cc1ccc(NC(=O)N2CCC(NC(=O)C(C)(C)C)CC2)cc1	i
CC(=O)N1CCN=C1SCc1c(F)cccc1Cl	3.6
O=C1CC(N2CCC(c3nc4ccccc4[nH]3)CC2)C(=O)N1Cc1ccccc1 (configuration not stated)	0.5
COc1cc(OC)c(OC)cc1/C=N/NC(=O)CC1C(=O)NN=C1C (configuration not stated)	0.6
O=C(O)CC1S/C(=N/N=C/c2ccc(-c3ccc(Cl)cc3[N+](=O)[O-])o2)NC1=O (configuration not stated)	i
NC(=O)C1CCN(C(=O)Cn2cccc2C(=O)c2ccccc2)CC1	i
Cc1cc(C(=O)CSc2nnnn2-c2ccc(O)cc2)c(C)n1Cc1ccc2c(c1)OCO2	2.7
c1ccc2c(c1)OCC(c1nn3c(Cn4nnc5ccccc54)nnc3s1)O2 (configuration not stated)	1.9
CCCNc1nc(OC(C(F)(F)F)C(F)(F)F)nc(OC(C(F)(F)F)C(F)(F)F)n1	i
Cc1csc(N(C)C(=O)CSc2nnc(COc3ccccc3C)o2)n1	0.7
COc1ccc(NC(=O)N[C@@H](CCSC)C(=O)O)cc1Cl	i
CNC(=O)c1csc(-c2ccc(C)cc2)n1	i
O=c1c2c(nc3nc(COc4ccccc4)[nH]n13)CCC2	0.7
CCOC(=O)c1c(C)oc2ccc(NS(=O)(=O)c3cccs3)cc12	i
Brc1cc2[nH]cnc2c2ccccc12	0.1
Brc1cc(Br)c2nc(-c3cccs3)ccc2c1	i
COc1cc(OC)cc(C(=O)NC(=S)Nc2ccc(Cl)c(C(=O)O)c2)c1	0.3
O=[N+]([O-])c1ccccc1N/N=C/c1c[nH]c2ccccc12	0.1
c1ccc(-c2nc(NCc3ccco3)c3ccccc3n2)nc1	2.3
Cc1ccc(-n2c(SCC(N)=O)nc3c([nH]c4ccccc43)c2=O)cc1	i
C=CCNC(=O)c1ccc(C(=O)c2ccccc2)cc1	0.1
CCCOc1cc(C)c(S(=O)(=O)n2ccc(C)n2)cc1C	0.2

By substructure, those above containing bromine.
smiles	H5N1 CPE
CCN1CCN(Cc2cc(Br)ccc2O)CC1	0.7
Cc1[nH]nc2c1C(c1ccccn1)N(c1ccc(Br)cc1)C2=O (configuration not stated)	i
COc1ccc(C(=O)NCCc2nnc(SCC(=O)Nc3ccc(Br)cc3)n2C)cc1	i
Brc1cc2[nH]cnc2c2ccccc12	0.1
Brc1cc(Br)c2nc(-c3cccs3)ccc2c1	i

Further structures follow:
smiles	H5N1 CPE
CS(=O)(=O)N1CCC(C(=O)Nc2ccc(Br)cc2F)CC1	i
CCOC(=O)C1CCN(C(=O)COc2cccc(C)c2)CC1	i
COCCNC(=O)c1cc2c(=O)n3cccc(C)c3nc2n(Cc2ccncc2)c1=N	9.8
CC(=O)c1cc(C#N)c(Oc2cc(C)cc(C)c2)nc1C	0.6
CCOC(=O)N1CCC(NC(=O)c2cc(C(=O)Nc3ccc(F)cc3F)ccc2CO)CC1	i
Cc1ccc(S(=O)(=O)N2CCCCC2C(=O)N2CCN(c3ccccc3F)CC2)cc1 (configuration not stated)	i
O=C(NCCN1CCc2ccccc2C1)C1CC(=O)N(C2CCCC2)C1 (configuration not stated)	0.0
Cc1ccc(S(=O)(=O)/N=S(/C)c2ccccc2)cc1 (configuration not stated)	0.2
Cc1nnc(NC(=O)C2CCCN(S(=O)(=O)Cc3ccccc3)C2)s1 (configuration not stated)	1.7
CCc1ccc(OCC(=O)NC(=S)Nc2ccc(C)cc2C)c(Br)c1	i
COC(=O)CC(=O)Cc1nc(N)nc(Nc2ccc(C)c(C)c2)n1	i
COc1ccc(OC)c(Nc2nc(N)nc(CSc3nnc(-c4ccncc4)o3)n2)c1	i
CCOC(=O)c1c(-c2ccccc2)[nH]c2ccc(O)cc12	1.7
CC(=O)c1cccc(NC(=O)c2ccc(N(Cc3ccc(C)cc3)S(C)(=O)=O)cc2)c1	i
CCOc1ccc(NC(=O)Nc2ccc(N(C)C(C)=O)cc2)cc1	0.2
Cn1c(/C=C/N2CCOCC2)c(C(=O)c2ccc(Br)cc2)c(=O)n(C)c1=O	1.8
O=C(Nc1ccc2c(c1)OCO2)c1ccc(S(=O)(=O)NCC2CCCO2)cc1 (configuration not stated)	i
Cc1ccc(C)n1-c1ccc(-c2nnco2)cc1	1.8
CCOc1ccc(-n2cnnn2)cc1S(=O)(=O)NC1CC1	0.8
COc1ccc(CNC(=O)/C=C/c2cc([N+](=O)[O-])ccc2OC(F)F)cc1	i
Cc1nn(C2CCOC(C)(C)C2)c2c1C(c1ccc(OC(C)C)cc1)SCC(=O)N2 (configuration not stated)	i
c1ccc(CCn2nnnc2C(c2cccnc2)N2CCN(c3nc4ccccc4s3)CC2)cc1 (configuration not stated)	1.0
O=C(CSc1nnc(-c2cccs2)n1Cc1ccco1)Nc1ccc2c(c1)OCO2	0.6
O=C(N/N=C/c1cccs1)c1cc(-c2ccc3ccccc3c2)n[nH]1	9.4
Cc1nc2sc(C(c3ccco3)N3CC(C)OC(C)C3)c(O)n2n1 (configuration not stated)	i
CC(C)NC(=O)CN(c1cccc(Br)c1)S(C)(=O)=O	i
CC(C)(NC(=O)N1CCCC1)c1cccc(C(C)(C)NC(=O)N2CCCC2)c1	0.1
O=C(NC(C(=O)c1ccccc1)n1cnccc1=O)c1ccccc1 (configuration not stated)	i
O=C1OC(c2ccccc2)=N/C1=C\N1CCCCC1	i
CC1CCCN(C(=O)Cn2nnc(-c3cccnc3)n2)C1 (configuration not stated)	i
COc1ccc(NC(=S)NCCc2ccccc2)c(OC)c1	0.9
COCCCn1c(Cc2csc(Nc3cccc(Cl)c3)n2)nnc1SCC(=O)OC1CCCCC1	3.0
Cc1ccc(-c2noc(C3CCN(S(=O)(=O)c4ccc5c(c4)OCCO5)CC3)n2)o1	0.1
O=C(CC1(O)C(=O)N(CN2CCOCC2)c2ccccc21)c1ccccc1 (configuration not stated)	0.4
Cc1ccc(S(=O)(=O)N(C)CC(=O)NC2CCCC2)cc1	i
CCCCn1nc2cc(C(=O)N[C@H](C)C3CCCCC3)ccc2c1OCC	i
COC(=O)c1ccc(C)c(NC(=O)C2COc3ccccc3O2)c1 (configuration not stated)	0.3
O=C(CSc1nn(-c2ccccc2)c(=S)s1)NC(=O)NCc1ccco1	i
CCC(=O)N1CCc2cc(Br)cc(S(=O)(=O)NCC3CCCO3)c21 (configuration not stated)	i
CCOC(=O)c1[nH]c2ccc(OC)cc2c1NC(C)=O	i
COc1ccc(-c2cc(C(=O)Nc3c(C)nn(Cc4ccccc4)c3C)no2)cc1	0.7
COC(=O)C(C)NC(=O)C(C)NC(=O)OCc1ccccc1 (configuration not stated)	i
NC(=O)CN1CC(c2ccccc2)CC1=O (configuration not stated)	i
Cc1occc1-c1nnc(SCC(=O)c2ccc(Cl)cc2)n1CC1CCCO1 (configuration not stated)	1.1
CCNC(=O)CSc1nnc(-c2ccccc2)n1-c1ccc(OCC)cc1	1.3
Cn1c(=O)c2c(nc(N3CCCCC3)n2CCSc2nc3ccccc3s2)n(C)c1=O	2.1
CCOC(=O)N1CC=C2C(C#N)=C(N)C(C#N)(C#N)[C@H](c3ccsc3)[C@H]2C1	0.9
CCOc1ccc(-c2nnc(-c3cccs3)o2)cc1OCC	i
CSc1nc(-c2ccco2)nn1S(=O)(=O)c1ccc(C)cc1	1.4
O=C(Nc1ccccc1)OCCNC(=O)c1cccc(Cl)c1	i
COc1cccc(C2CC(c3cccc(C)c3)n3ncnc3N2)c1 (configuration not stated)	i
N#C/C(=C1\C(=O)Nc2c(Cl)cc(Cl)cc21)c1nnc2n1CCCCC2	i
Cc1ccc(OCC(=O)Nc2nnn(C)n2)c(C)c1	i
CC1CCN(C(=O)c2cc3nc(-c4ccccc4)cc(-c4ccccc4)n3n2)CC1	2.1
COC(=O)C1=C(N)Oc2cc(N(C)C)ccc2C1c1ccccc1OC (configuration not stated)	i
CCN(CC)S(=O)(=O)c1ccc2c(c1)nc(CCC(=O)Nc1ccccc1Cc1ccccc1)n2CC	0.1
O=C(O)CSCCn1cccn1	0.9
CCOC(=O)c1ccccc1NC(=O)Nc1ccc(OC)c(OC)c1	i
COc1ccc(N=C(C)c2c(O)n(C)c(=O)n(C)c2=O)c(OC)c1	1.1
Fc1ccc(Br)cc1/C=N/n1cnnc1	2.4

Among those listed so far, these have a cyano group.
smiles	H5N1 CPE
CN(C(=O)c1cccc(C#N)c1)c1nnc(C2CCCO2)s1 (configuration not stated)	0.1
CCOC(=O)c1sc(NC(=O)c2cc(-c3ccccc3C)nc3ccccc23)c(C#N)c1C	5.8
CC(=O)c1cc(C#N)c(Oc2cc(C)cc(C)c2)nc1C	0.6
CCOC(=O)N1CC=C2C(C#N)=C(N)C(C#N)(C#N)[C@H](c3ccsc3)[C@H]2C1	0.9
N#C/C(=C1\C(=O)Nc2c(Cl)cc(Cl)cc21)c1nnc2n1CCCCC2	i

The list goes on:
smiles	H5N1 CPE
COc1ccc(N=C2C(=O)Nc3ccccc32)cc1	i
Cc1cc(NC(=O)c2cc(-c3ccccc3)on2)no1	i
CC(=O)C1=C(O)C(=O)N(CCC(=O)O)C1c1cccc(F)c1 (configuration not stated)	i
COc1ccccc1-n1cnc2sc(-c3ccccc3)cc2c1=O	1.1
O=C(c1cccs1)N1CCN(C2CCN(Cc3ccccc3)CC2)CC1	0.4
O=C(NCC1CCCO1)c1cccc(N2CCCC2=O)c1 (configuration not stated)	0.4
O=S(=O)(/N=C(/Nc1ccccc1F)c1ccccc1)c1ccccc1	i
CCn1c(N)c(C(=O)NCc2ccc3c(c2)OCO3)sc1=S	i
O=c1[nH]c(SCc2n[nH]c(=S)n2-c2ccccc2)nc2sc3c(c12)CCC3	0.4
C=CCn1c(SCC(=O)Nc2nc3ccccc3s2)nnc1-c1ccccc1O	i
COc1ccc(-c2c(C)nn(Cc3ccccc3)c2N)cc1	i
Cc1ccc(-c2n[nH]c(=S)n2/N=C/c2cccn2C)cc1	0.1
COc1cc(C=O)ccc1OCCCOc1ccccc1C(=O)O	0.7
CCC(=O)Nc1c(C)c(CC)nc2ccccc12	1.7
